Bioassay records deposited in PubChem by several laboratories.
PrP UTR inh – inhibition of PrP 5' UTR reporter expression; 0.35% of 340,000 active; AID 488862; cell-based PrP 5' UTR mRNA reporter, plate reader; inhibition, % (no concentration beside the values);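 active means every replicate at 50% or more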;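 further: 0 = median of the neutral control wells; tested in H4 reporter cells; numbers are from one replicate; inactives centre near -14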
RN4220 kill – kills Staphylococcus aureus RN4220 | S. aureus RN4220 growth, OD600, 16 h | inhibition, % (concentration not given with the values) | 0.33% of 330,000 active | AID 1259311;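 active means z-score of -3 or lower and OD600 up to 0.18 on both plates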;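 further: plate controls were untreated cells for no effect and reference antibiotic for full effect; stock transfer was 100 nL into about 80 µL; one replicate is shown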
Bead autofluor – compound fluorescence in toxin protease inhibitor counterscreen; 3.1% of 360,000 active; compound autofluorescence counterscreen, microsphere flow cytometry; active compounds read high; fluorescence intensity (concentration not given with the values);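 active means at least 3 SD above the mean of all compounds, about 16000 in these data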;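 further: 100 nL of 1 mM stock went into each well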
ugtP null kill – kills S. aureus RN4220 lacking UgtP; growth inhibition, % (concentration not given with the values); 0.54% of 330,000 active; S. aureus RN4220 ugtP deletion, OD600 growth, 16 h; some inactives read as strong as hits;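 active means z-score under -3 and OD600 up to 0.15 on both plates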;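 further: plate controls were untreated wells for no effect and antibiotic for full effect; wells of about 80 µL received 100 nL stock; the first replicate is given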
Mtb hypoxia inh – reduces hypoxia-regulated biosensor signal in M. tuberculosis. M. tuberculosis hypoxia-regulated fluorescent reporter, fluorescence. fluorescence inhibition, % (concentration not given with the values). 0.1% of 300,000 active;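 active means 35 to 45% if threefold the growth effect, above 45% if 1.5-fold the growth effect; inactive means the rest, general growth blockers included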;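 further: wells of about 50 µL received 100 nL stock; 0% = vehicle wells and 100% = reference inhibitor wells; whole bacteria with a GFP reporter of the hypoxia response; strong numbers were not always called active; many hits fall short of the cut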
BJeLR lethal – BJeLR cell viability loss; 0.17% of 300,000 active; inhibition, % (concentration not given with the values); BJeLR (HRASV12) viability, CellTiter-Glo ATP luminescence, 48 h; reference of the scale not given here;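 active means replicate mean above 50%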;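 further: 50 nL library stock added to about 25 µL; numbers are from one replicate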
Mtb hypoxia inh growth – recorded beside Mtb hypoxia inh, whose call it bears; growth inhibition, %; measured here: M. tuberculosis growth (absorbance);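 0% = vehicle and 100% = reference antibiotic; read after six days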
* hit, by the source's call; . = not tested or not shown.

SMILES	PrP UTR inh	RN4220 kill	Bead autofluor	ugtP null kill	Mtb hypoxia inh	Mtb hypoxia inh growth	BJeLR lethal
CC(C)(C)NC(=O)C(c1cccs1)N(C(=O)C(=O)NC1CCCC1)c1ccccc1F (stereo not drawn)	-38	1.8	3358	11	3	9	-1
COCCNC(=O)c1cc(-c2cccnc2)nc2ccc(Br)cc12	-19	-0.1	23362*	-8	15	11	-5
Cn1c(=O)c2[nH]c(SCCN3CCOCC3)nc2n(C)c1=S	-23	6.0	2924	5	4	-3	.
O=C(C1=C[C@@H](c2ccc(C(F)(F)F)cc2)C[C@@H](OCCCCO)O1)N1CCCCCCC1	-1	.	2866	.	.	.	-1
COc1ccc(CC(=O)Nc2cccc(SC)c2)cc1OC	-2	5.8	4361	7	13	8	9
COc1ccc(C2Oc3ccccc3C3=C2C(c2cccs2)n2ncnc2N3)cc1 (stereo not drawn)	-22	-5.8	4737	-11	-8	-6	-5
CN(C)C(=S)Nc1cccc(-c2n[nH]c(=S)o2)c1	-30	8.0	4483	7	8	5	-1
CCOC(=O)C1(CCc2ccccc2)CCN(CC(O)CO)CC1 (stereo not drawn)	-19	1.1	3593	10	-3	-2	9
NS(=O)(=O)c1ccc(CCNC(=O)c2ccc[nH]c2=S)cc1	-23	2.3	3834	10	17	2	1
Cc1cc(OCCCCCN2CCCC2)ccc1Cl	-19	0.3	3717	9	23	17	-11
COC(=O)c1c(C)oc(C)c1S(=O)(=O)NCc1cccs1	-12	5.6	3980	5	9	6	-3
O=C(NCCN1CCN(Cc2ccccc2)CC1)Nc1cc(Cl)cc(Cl)c1	-9	-2.3	4895	-36	9	-2	1
O=C(COC(=O)CCC(=O)c1ccc(F)cc1)NCc1ccco1	-12	4.6	4231	0	3	-1	-6
CCc1cc(=O)oc2c3c(cc(OCC(=O)NCc4ccccn4)c12)OC(C)(C)CC3	-15	1.0	5607	12	.	.	-4
C=CCNC(=O)NC(=O)COC(=O)CC(NC(N)=O)c1ccc(Cl)cc1 (stereo not drawn)	-10	2.8	2356	3	19	-3	-2
CCCCNc1c(-c2ccc(SC3CCCCC3)c(OC)c2)nc2ccc(Cl)cn12	-11	9.9	3874	9	0	2	-10
O=c1oc2ccccc2c2nccnc12	-37	0.4	8153	9	4	1	-4
O=C(NC1CCN(Cc2ccc3ccccc3c2)CC1)c1ccccc1	-3	-2.2	4959	4	-8	12	-2
Cc1c(N2C(=O)/C(=C/c3cccc4ccccc34)SC2=S)c(=O)n(-c2ccccc2)n1C	-13	-2.1	7766	4	2	-10	-5
COc1ccc(N(C(C)C(=O)Nc2ccc(S(=O)(=O)N3CCCCC3)cc2)S(C)(=O)=O)cc1 (stereo not drawn)	-6	1.0	5630	1	-5	8	-6
CCNc1c(NC(=O)c2cccs2)c(=O)oc2ccccc12	-9	-2.6	4119	8	3	1	9
COc1ccc(N2CC(C(=O)N[C@H](C(=O)NC3CCCC3)C(C)C)CC2=O)cc1 (stereo partly drawn)	-6	0.4	5195	0	-1	2	4
O=C(NCc1ccccc1)C(c1ccccn1)N(C(=O)c1csnn1)c1ccccc1F (stereo not drawn)	-29	5.1	3427	8	3	2	-3
O=C(NCCO)C(O)C(O)C(=O)NCCO (stereo not drawn)	-24	2.5	3970	-6	5	11	-1
O=C(NCCCn1ccnc1)c1cc2nc(-c3ccc(Br)cc3)cc(C(F)(F)F)n2n1	1	4.8	3799	-3	6	20	5
Further results
SMILES	PrP UTR inh	RN4220 kill	Bead autofluor	ugtP null kill	Mtb hypoxia inh	Mtb hypoxia inh growth	BJeLR lethal
O=C(CN(c1ccc(F)cc1)S(=O)(=O)c1ccc2c(c1)OCCO2)Nc1ccc2c(c1)OCO2	-3	6.8	4849	4	8	8	-3
CCOC(=O)N/N=C/c1c(C)nn(-c2ccccc2Cl)c1Cl	-63	.	2776	.	.	.	14
CC(C)C(=O)NC(=S)N(Cc1ccccc1)Cc1ccccc1	-17	4.0	2161	7	-7	2	-5
O=C(CCc1nc2ccccc2c(=O)[nH]1)NNC(=O)c1cccc(Cl)c1	-32	1.7	5121	9	1	3	2
CC1=C(C(=O)Nc2ccccc2)C2(CCCCC2)C(C#N)=C(S)N1	-6	0.5	3999	-5	.	.	-4
C=CCn1c(=S)[nH]c2scc(-c3cccs3)c2c1=O	-22	57	4183	63	14	5	.
CC(C)c1cccc(C(C)C)c1OCCCCN1CCCC1	-32	3.8	8128	18	19	4	-2
COc1ccc(C=C2Oc3ccccc3C2=O)cc1	.	12	.	16	20	14	.
CC(NC(=O)Cn1c(=O)[nH]c2ccsc2c1=O)C12CC3CC(CC(C3)C1)C2 (stereo not drawn)	-5	-0.9	4184	-4	-2	7	-16
CC(C)(C)c1cnnn1-c1ccc(-c2csc(N)n2)cc1	-36	2.3	10249	9	10	5	-4
CC(C)Cc1nnc(NC(=O)CCC(=O)N2CCN(Cc3ccc(Cl)cc3)CC2)s1	-12	1.2	4647	4	-1	-6	5
Cc1ccc(C)c(NC(=S)N2CCCC2)c1	-18	3.1	6101	4	-8	-4	2
Cn1c(=O)c2c(nc(NCCc3ccccc3)n2Cc2ccc(F)cc2)n(C)c1=O	-15	-2.3	5493	9	3	1	18
O=c1cc(O)nc(SCc2ccc(Cl)cc2)[nH]1	2	6.7	6886	-6	12	2	2
Cc1cccc(C(=O)Nc2ccc(NC(=O)c3ccccc3)cc2)c1	-9	26	4299	-8	-2	7	-19
CCn1c(SCC(=O)Nc2cccc(NC(=O)c3ccco3)c2)nnc1-c1cccs1	-24	1.6	2154	-5	.	.	-4
O=Cc1ccc(Oc2cc(-c3ccccc3)nc(-c3ccccc3)n2)cc1	-1	69	9430	100*	2	2	18
CC(NC(=O)COC(=O)/C=C/c1ccc([N+](=O)[O-])cc1)c1ccccc1 (stereo not drawn)	-21	1.5	2934	3	-8	7	1
CS(=O)(=O)N(CC(=O)NCc1ccncc1)Cc1ccc(Cl)cc1	-6	-2.9	3661	2	.	.	.
COc1ccc(-n2nc(C(N)=O)nc2-c2ccccc2)cc1	-12	2.7	4032	5	9	4	-10
Cc1cccc2[nH]c(CN(C)Cc3nc(CC4CC4)no3)nc12	-22	2.1	4942	3	8	2	6
O=C(Nc1ccc(-c2ccc3nncn3n2)cc1)C1CCCC1	-19	-0.6	4150	-6	-19	1	6
Cc1ccccc1C(=O)N1CCN(c2ccccn2)CC1	-21	-15	3178	-2	9	14	-7
Cc1ccccc1-c1ccc(=O)n(CC(=O)Nc2ccc(-n3cnnn3)cc2)n1	-10	4.2	4807	-5	10	-3	-4
Cc1ccc(NC(=O)c2ccc(=O)[nH]c2)cc1S(=O)(=O)N1CCCCC1	-1	1.4	3689	4	14	3	-5

Taken from above.
`O=Cc1ccc(Oc2cc(-c3ccccc3)nc(-c3ccccc3)n2)cc1` in BJeLR lethal has 18
`CC(NC(=O)Cn1c(=O)[nH]c2ccsc2c1=O)C12CC3CC(CC(C3)C1)C2` (stereo not drawn) in Mtb hypoxia inh has -2

More records:
SMILES	PrP UTR inh	RN4220 kill	Bead autofluor	ugtP null kill	Mtb hypoxia inh	Mtb hypoxia inh growth	BJeLR lethal
COc1ccc2nc(SCC(=O)NCc3ccc(S(N)(=O)=O)cc3)[nH]c2c1	-10	0.4	4101	4	-9	-8	-21
CCN1C(=O)Nc2cccc3cccc1c23	-6	-1.1	.	-8	-9	2	-2
COC(=O)CSc1nnc(-c2ccncc2)o1	3	4.1	16743*	1	-1	7	4
Cc1cccc(NC2=NCC(=O)N2CCc2ccccc2)c1	-8	5.9	4725	9	.	.	5
CC1=C(C(=O)OC2CCCCC2)C(c2ccc(O)cc2)NC(=O)N1 (stereo not drawn)	-2	5.7	3540	2	7	0	1
CCOc1ccc(Oc2c(C=NNC(=O)COc3ccccc3OC)c(C)nn2-c2ccccc2)cc1	.	-4.3	.	-7	8	8	.
O=C(NC(=S)Nc1ccc2c(c1)OCO2)c1ccccc1	-83	-13	2869	43	10	7	-8
COc1cccc(-c2cc(C(=O)Nc3ccn(Cc4ccc(C)cc4)n3)no2)c1	-7	6.2	4001	21	6	2	3
CCOC(=O)C1CCN(C(C(=O)NC2CCCCC2)c2ccc(OC)cc2)CC1 (stereo not drawn)	-3	-0.2	3906	4	8	15	.
C[C@]12CCC3[C@@H](CC[C@H]4C[C@@H](O)CC[C@]34C)C1CCC2=O (stereo partly drawn)	-3	1.9	2776	1	-5	3	4
CC(SCc1ccccc1)C(=O)Nc1ccccc1-c1ccccc1 (stereo not drawn)	3	8.8	2474	2	11	4	-4
CC1(C)CC(O)CC(C)(C)N1CC(O)COCCOc1ccc(Br)cc1 (stereo not drawn)	-11	0.6	3255	8	7	15	-11
CSc1nnc2c(n1)OC(c1ccc(C(=O)O)cc1)N(C(C)=O)c1ccccc1-2 (stereo not drawn)	-7	2.7	6060	12	.	.	-5
Cc1cc(C(=O)OCC(=O)N(C)c2ccccc2)c(C)o1	-23	5.2	3471	2	9	4	.
CC(C)CCNC(=O)c1ccc(Cl)c(NC(=O)c2ccccc2F)c1	.	6.9	.	3	12	4	-8
CC(C)Oc1ccc(CCNC(=O)CC2C(=O)NCCN2C)cc1 (stereo not drawn)	4	2.6	3774	7	14	-5	-10
COc1ccccc1NS(=O)(=O)c1cc(NC(=O)CNC(=O)c2ccc(C)s2)ccc1Cl	-7	-2.8	8959	7	1	7	6
O=C1NC(=O)N(c2ccccc2)C(=O)/C1=C\c1ccccc1[N+](=O)[O-]	-14	0.7	5634	8	-5	-1	-3
CCC(NC(=O)c1cncc(Br)c1)c1ccccc1 (stereo not drawn)	-17	0.2	6199	12	15	0	-4
O=C(NCCCc1nc2ccccc2[nH]1)c1ccc(F)cc1	-15	2.5	4406	10	7	-6	-9
COc1ccc(CCNC(=O)CCn2c(=O)oc3ccccc32)cc1	-25	8.5	4337	-2	-2	0	5
CC(=O)Nn1c(C)nnc1-n1nc(C)cc1C	-20	5.1	3231	-3	8	9	-4
Cc1nc([N+](=O)[O-])cn1CC(O)c1ccc(F)cc1 (stereo not drawn)	-23	3.5	.	1	7	-5	-3
CCC(=O)c1ccc(OCC(=O)N2CCN(CC(=O)Nc3ccc(C)cc3)CC2)cc1	-25	2.3	2981	8	8	4	.
CCCCNc1ccccc1C(=O)OCC(=O)Nc1ccc(S(N)(=O)=O)cc1	-19	1.1	17458*	1	1	7	-1
CC1CCC(NC(=O)CN2CCCN(Cc3ccc(F)cc3Cl)C2=O)CC1 (stereo not drawn)	-17	-9.3	2902	0	2	9	2

Of the compounds above, these have a Cl atom:
SMILES	PrP UTR inh	RN4220 kill	Bead autofluor	ugtP null kill	Mtb hypoxia inh	Mtb hypoxia inh growth	BJeLR lethal
Cc1cc(OCCCCCN2CCCC2)ccc1Cl	-19	0.3	3717	9	23	17	-11
O=C(NCCN1CCN(Cc2ccccc2)CC1)Nc1cc(Cl)cc(Cl)c1	-9	-2.3	4895	-36	9	-2	1
C=CCNC(=O)NC(=O)COC(=O)CC(NC(N)=O)c1ccc(Cl)cc1 (stereo not drawn)	-10	2.8	2356	3	19	-3	-2
CCCCNc1c(-c2ccc(SC3CCCCC3)c(OC)c2)nc2ccc(Cl)cn12	-11	9.9	3874	9	0	2	-10
CCOC(=O)N/N=C/c1c(C)nn(-c2ccccc2Cl)c1Cl	-63	.	2776	.	.	.	14
O=C(CCc1nc2ccccc2c(=O)[nH]1)NNC(=O)c1cccc(Cl)c1	-32	1.7	5121	9	1	3	2
CC(C)Cc1nnc(NC(=O)CCC(=O)N2CCN(Cc3ccc(Cl)cc3)CC2)s1	-12	1.2	4647	4	-1	-6	5
O=c1cc(O)nc(SCc2ccc(Cl)cc2)[nH]1	2	6.7	6886	-6	12	2	2
CS(=O)(=O)N(CC(=O)NCc1ccncc1)Cc1ccc(Cl)cc1	-6	-2.9	3661	2	.	.	.
CC(C)CCNC(=O)c1ccc(Cl)c(NC(=O)c2ccccc2F)c1	.	6.9	.	3	12	4	-8
COc1ccccc1NS(=O)(=O)c1cc(NC(=O)CNC(=O)c2ccc(C)s2)ccc1Cl	-7	-2.8	8959	7	1	7	6
CC1CCC(NC(=O)CN2CCCN(Cc3ccc(F)cc3Cl)C2=O)CC1 (stereo not drawn)	-17	-9.3	2902	0	2	9	2

2 entries from above, field by field.
> O=C(NC(=S)Nc1ccc2c(c1)OCO2)c1ccccc1
- PrP UTR inh: -83
- RN4220 kill: -13
- Bead autofluor: 2869
- ugtP null kill: 43
- Mtb hypoxia inh: 10
- Mtb hypoxia inh growth: 7
- BJeLR lethal: -8
> COc1cccc(-c2cc(C(=O)Nc3ccn(Cc4ccc(C)cc4)n3)no2)c1
- PrP UTR inh: -7
- RN4220 kill: 6.2
- Bead autofluor: 4001
- ugtP null kill: 21
- Mtb hypoxia inh: 6
- Mtb hypoxia inh growth: 2
- BJeLR lethal: 3
